Beta apoptosis – beta cell apoptosis inhibition. INS-1E cytokine-induced death, ATP luminescence, 48 h; percent of positive-control rescue, neutral wells zero. protection from apoptosis, % (test concentration not listed). 0.8% of 300,000 active;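 active = all replicates at 75% or more, or half of them and the mean; inconclusive = half reach 75% but not the mean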;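 also: 0% = cytokine-treated negative control wells and 100% = positive control rescue; higher means more ATP so stronger rescue from cytokine killing; wells of about 40 µL received 100 nL stock; the first replicate is given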
LANA-H2B inh – blocks KSHV LANA binding to histone H2A/H2B. Q9QR71. cell-free LANA-H2A/H2B peptide, fluorescence polarization. inhibition, % (concentration not given with the values). 0.6% of 320,000 active; in the data active = inhibition mostly above about 10%, no sharp cut-off; inactive = mostly below about 6.7%;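 also: stock transfer was 7.5 nL into about 10 µL; 0% = median of vehicle wells and 100% = median of positive control wells; one replicate is shown; the record names a cut of 25% in any replicate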
T cruzi inh – T. cruzi replication inhibition; 1.4% of 300,000 active; AID 1885; inhibition, % (concentration not given with the values); T. cruzi beta-gal in NIH3T3, luminescence, 90 h;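 active = mean inhibition across valid replicates above about 55%, limit read from the data; inconclusive = mean below that limit but half or more replicates reach it; inactive = mean below it, under half of replicates reach it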;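 also: signal also drops with host cell toxicity which is not excluded here; 0% = plate median of DMSO wells and 100% = zero luminescence signal; higher percent means less beta-gal luminescence so fewer parasites; stock transfer was 50 nL into about 50 µL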
Calb FLC – C. albicans growth modulation with fluconazole; C. albicans CaCi-2 (fluconazole-resistant clinical isolate) + fluconazole, Alamar Blue growth, 48 h; 0.57% of 300,000 active; growth inhibition, % (no concentration beside the values);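 active = most replicates above 75%; inconclusive = exactly half above 75%; inactive = most below 75%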;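 also: all wells also contain fluconazole at 8 µg/ml as a sub-toxic cotreatment; 0% = median of DMSO wells and 100% = median of geldanamycin control wells; wells of about 8 µL received 7.5 nL stock; the first replicate is given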
RanGTP-Impb inh – disruptors of Ran-importin-beta complex formation – biochemical, FRET, CFP-Ran, YFP-importin-beta, homogeneous, primary screen; cell-free CFP-Ran/YFP-importin-beta FRET ratio; inhibition, % (test concentration not listed); 1.1% of 300,000 active; AID 2216;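 active = most replicates above 15%; inconclusive = exactly half above 15%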;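 also: 0% = DMSO wells and 100% = Ran loaded with GDP instead of GTP; wells of about 40 µL received 100 nL stock; the first replicate is given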
A1 inh – inhibitors of the anti-apoptotic protein A1, read as caspase activation. MEF A1-2A-BIM cells, Caspase-Glo 3/7 luminescence, 3 h; percent of clofoctol response, vehicle zero. caspase activation, % (concentration not given with the values). 0.066% of 330,000 active;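 active = over half of replicate activation scores above 10%, or exactly half above 10 with the replicate mean above 10; inconclusive = replicate mean below 10 yet half the replicates above 10; inactive = over half of replicates below 10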;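 also: wells of about 30 µL received 50 nL stock; many hits fall short of the cut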
B2AR ag – activates human beta-2 adrenergic receptor causing internalization; P07550; Am2.2-beta2AR cells, FAP receptor internalization, flow cytometry; reference of the scale not given here; response, % (test concentration not listed); 0.43% of 340,000 active;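 active = response above a set limit, near 3 SD of response in nonfluorescent compounds, cut at about 42% in these data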;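 also: stock transfer was 100 nL into about 11 µL; a reference agonist was the positive control; negative values mostly stem from fluorescent compounds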
Target sequence (P07550 whole entry, looked up): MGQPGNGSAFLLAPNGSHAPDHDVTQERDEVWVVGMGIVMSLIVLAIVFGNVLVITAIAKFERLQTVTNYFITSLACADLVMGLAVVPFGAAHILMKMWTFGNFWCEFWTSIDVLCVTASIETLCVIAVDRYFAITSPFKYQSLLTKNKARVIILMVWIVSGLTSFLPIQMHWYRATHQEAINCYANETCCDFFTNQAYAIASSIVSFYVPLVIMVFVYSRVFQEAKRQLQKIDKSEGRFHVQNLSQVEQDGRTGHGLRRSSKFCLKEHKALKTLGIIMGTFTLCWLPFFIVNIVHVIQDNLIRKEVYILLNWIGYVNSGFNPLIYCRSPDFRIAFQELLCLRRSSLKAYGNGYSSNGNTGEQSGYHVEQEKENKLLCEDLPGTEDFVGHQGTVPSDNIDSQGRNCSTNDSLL
UCH37 DUB inh – human UCH37 deubiquitinating enzyme inhibition; Q9Y5K5; purified proteasome/UCH37, Ub-AMC cleavage fluorescence; 0.33% of 330,000 active; inhibition, % (no concentration beside the values); AID 588478;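 active = mean of two replicates above 20%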;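 also: 0% = compound-free wells with enzyme and 100% = wells lacking proteasome; stock transfer was 100 nL into about 20 µL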
Target sequence (Q9Y5K5 whole entry, looked up): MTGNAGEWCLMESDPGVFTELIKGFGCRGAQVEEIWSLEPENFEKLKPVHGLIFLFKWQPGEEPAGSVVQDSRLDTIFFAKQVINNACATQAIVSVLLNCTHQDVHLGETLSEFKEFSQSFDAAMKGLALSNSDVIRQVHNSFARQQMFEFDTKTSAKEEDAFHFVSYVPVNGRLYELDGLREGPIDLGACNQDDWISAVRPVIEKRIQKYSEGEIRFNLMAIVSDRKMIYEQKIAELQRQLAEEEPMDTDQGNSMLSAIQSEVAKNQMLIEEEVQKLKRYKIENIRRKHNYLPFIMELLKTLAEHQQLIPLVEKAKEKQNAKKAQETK
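system = Proteasome-associated human UCH37 deubiquitinase | amount = 0.15 nM proteasome as dispensed | medium = pH 7.4 Tris-HCl (50 mM) with ovalbumin, ATP-MgCl2, DTT | incubation = 30 min preincubation with enzyme, 25 min cleavage at room temperature | detection = AMC fluorescence 355/460 nm | read-out basis = percent inhibition | controls = no-proteasome and no-compound wells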
Starred values were filed as active, the others as inactive; ? = inconclusive; nt = not tested or not shown; & = joins results of further samples.

SMILES	Beta apoptosis	LANA-H2B inh	T cruzi inh	Calb FLC	RanGTP-Impb inh	A1 inh	B2AR ag	UCH37 DUB inh
Cc1ccc(C2(c3ccccc3)NC(=O)N(CC(=O)NCc3ccco3)C2=O)cc1C (stereo unspecified)	5	-3.2	nt	nt	nt	0.3	14	nt
COc1ccc(Cn2c(C3CC3)nc3ccc(NC(=O)c4ccco4)cc3c2=O)cc1	-9	-2.3	29	11	-0.8	-4.0	-3	-2.6
O=C(Oc1ccc2ccccc2c1Cl)N1CCCC1	-4	1.9	-6	-40	2.7	-2.9	12	3.7
O=C(COc1cccc(Cl)c1)Nc1nc(-c2ccc(S(=O)(=O)N3CCOCC3)cc2)cs1	nt	nt	22	8	1.0	nt	12	1.8
CCCCn1c(-c2cccc(C)c2)nc2cc3[nH]c(=O)c(C(C)C)nc3cc21	51	-2.8	26	0	7.4	-0.1	11	-78
O=C(NC(=O)N1CCN(c2ccc([N+](=O)[O-])cn2)CC1)c1c(Cl)cccc1Cl	-9	4.0	3	-3	-3.1	-0.6	nt	5.0
COC(=O)c1ccc(C2/C(=C(\O)c3cccc(OC)c3)C(=O)C(=O)N2CCCN2CCOCC2)cc1 (stereo unspecified)	-2	-8.2	-9	6	-0.7	0.4	0	6.5
CCn1nc(C(=O)OCC(=O)NCCN2C(=O)CSC2=O)c2ccccc2c1=O	-7	1.1	-5	-3	3.1	0.5	9	0.1
C#CCOCCOCCOCCNc1nc(N2CCN(C(=O)[C@H](CC(N)=O)n3cc(C(N)[C@H](C)CC)nn3)CC2)nc(N2CCN(C(=O)[C@H](CC(N)=O)n3cc(C(N)[C@@H](C)CC)nn3)CC2)n1 (stereo partly specified)	-7	0.4	nt	nt	nt	1.8	1	19
CC1=C(C(=O)N2CCOCC2)C(c2cccc(C)c2)NC(=S)N1 (stereo unspecified)	-9	6.5	-10	0	-0.6	-0.3	1	1.9
CCSc1nnc2c(n1)[nH]c1c(C)cccc12	20	-1.8	-16	33	7.2	-2.1	8	1.6
CC1(C)NC(=O)N(CC(=O)OCC(=O)c2ccc(Br)s2)C1=O	-5	1.8	nt	nt	nt	-0.6	-5	3.7
CC(=O)C1=C(C)NC(=O)NC1c1cccs1 (stereo unspecified)	-6	-0.9	-18	5	-0.2	1.0	-5	3.0
COc1ccccc1NC(=O)CN1CCN(c2ccccc2OC)CC1	3	-1.3	15	63*	-0.9	-0.5	-4	0.4
Cc1ccc(NC(=O)COC(=O)c2cccc(OC(F)F)c2)cc1S(=O)(=O)N1CCCCC1	-2	5.9	nt	nt	nt	-0.7	-3	0.1
COc1ccc2nc(NC(=O)CCNS(=O)(=O)c3ccc4c(c3)oc(=O)n4C)sc2c1	-6	13	-7	-7	1.0	-0.1	-4	-0.4
CCNC(=O)CN(Cc1ccccc1)S(=O)(=O)c1ccccc1	-2	0.4	0	7	-4.9	0.3	0	2.1
NC(=O)c1ccc(-n2nnnc2Oc2ccccc2C(=O)N2CCOCC2)cc1	nt	-0.9	-27	20	3.7	0.7	4	0.8
CCn1c(CNC(=O)Cc2ccc(OC)cc2)nnc1SCC(=O)Nc1ccc(C(=O)O)cc1	2	-0.5	-15	25	1.0	0.6	-6	0.5
CCOc1ccc(S(=O)(=O)N2CCCC(C(=O)NC3CC3)C2)cc1Cl (stereo unspecified)	nt	-0.8	-2	1	2.2	-0.2	-12	0.9
NC(=O)C1Cc2ccccc2CN1C(=O)c1cc(C2CC2)nn1-c1ccccc1 (stereo unspecified)	-2	2.3	nt	nt	nt	-0.8	-17	-2.5
COc1ccc(CCNCC(=O)Nc2ccc(C)c(Br)c2)cc1OC	2	8.4	10	-4	8.7	0.5	0	6.9
Cc1ccc(CSc2nnc(-c3ccccn3)n2C)cc1	-4	1.5	4	-13	1.6	-0.2	2	0.0
CN(CC(=O)Nc1ccc(Cl)c(C(F)(F)F)c1)C(=O)c1cc(=O)c2ccccc2o1	2	2.0	nt	nt	nt	2.0	-1	-1.1
CN1C(=O)/C(=C/c2ccccc2F)Sc2ccc(C(=O)N3CCCC3)cc21	4	-6.6	-16	18	-0.8	-0.1	-3	-5.3
O=C(CCNC(=O)c1ccccc1Cl)Nc1nccs1	1	3.6	-7	-3	0.7	0.1	-3	0.6
O=C(NCC(=O)N1CCN(Cc2ccc3c(c2)OCO3)CC1)c1ccccc1F	2	1.6	nt	nt	nt	0.6	17	2.3
CC1CC(C)CN(C(=O)c2ccc(CSc3nc4ccncc4[nH]3)cc2)C1 (stereo unspecified)	0	1.3	12	3	-2.5	-0.4	-4	0.7
Cc1cc(C)c(C(=O)COC(=O)C2CCN(c3ccc(C(F)(F)F)cn3)CC2)c(C)c1	2	-10	nt	nt	nt	0.0	-2	-3.7
O=C(NC1=NCCS1)C1COc2ccccc2O1 (stereo unspecified)	-20	-36	9	-5	-1.5	-7.1	2	4.9
CC(NC(=O)NC(=O)c1ccc(Cl)cc1)c1ccccc1 (stereo unspecified)	-1	2.2	12	nt	nt	-0.6	0	1.8
COc1cc(CN2CCN(C(=O)c3ccc(-c4ccccc4)cc3)CC2)cc(OC)c1OC	11	0.3	24	11	0.2	0.0	-4	3.2
COc1ccc(NC(=O)CSc2nnc(NC(=O)c3ccccc3C(=O)O)s2)cc1	-2	1.8	-19	17	2.6	-0.6	12	-0.8
COC(=O)c1cc(OCC(=O)NC2CCCc3ccccc32)cc(C(=O)OC)c1 (stereo unspecified)	4	-3.2	-1	-3	-4.3	-0.1	-1	0.8
COc1cccc(C2C(C(=O)c3sc(C)nc3C)=C(O)C(=O)N2CCN2CCOCC2)c1OC (stereo unspecified)	-1	-5.8	-4	-2	3.4	1.0	-1	9.1
NC(N)=NC1=NC(=O)C(Cc2ccccc2Cl)S1 (stereo unspecified)	-7	1.8	0	-1	-0.1	0.1	-2	-0.7
CC(=O)NCCC(=O)Nc1nc(-c2ccc3c(c2)OCCO3)cs1	-4	-0.3	-12	-5	2.3	0.1	9	1.7
O=C(OCc1ccccc1)c1ccc(Br)o1	-3	-4.8	-10	1	3.4	1.8	5	1.9
O=C(CN1C(=O)c2cccnc2Oc2ccc(Cl)cc21)N1CCOCC1	-2	5.6	0	2	1.5	-0.4	3	-1.3
O=c1oc2ccccc2c(O)c1C=NCc1ccccn1	-2	-0.7	-20	-11	-0.1	-0.9	-2	-5.7
O=C(Oc1ccccc1/C=C\C(=O)c1cc2ccccc2o1)c1ccccc1	-2	0.5	1	-9	-1.7	-0.8	-7	3.0
CCN(CC)CCCNC(=O)c1nn2c(C(F)(F)F)cc(-c3ccccc3)nc2c1Cl	4	2.1	-6	-3	-2.4	-0.2	-7	5.9
COc1ccc(CCNC(=O)COC(=O)Cc2cc(OC)c(OC)c(OC)c2)cc1	0	0.3	-10	7	0.4	0.2	7	4.6
CCOc1ccc(NC(=O)COC(=O)Cc2ccc(S(=O)(=O)N3CCOCC3)s2)cc1	3	-17	-11	0	-5.5	0.3	-3	0.5
CCC(=O)/C=C1/Sc2ccc(OC)cc2N1CC	10	-3.2	19	4	5.6	-1.2	-1	15
COc1ccc(Nc2ccc(N3C(=O)CCCC3=O)cc2[N+](=O)[O-])cc1OC	3	-5.3	12	-3	2.5	-0.4	12	8.0
O=C1CCC(=O)N1N1C(=O)C2C3c4ccccc4C(c4ccccc43)C2C1=O (stereo unspecified)	2	2.7	-15	35	5.9	0.4	-1	2.1
CC(C)(C)c1ccc(OCCC(=O)OCC(=O)NC2CCCCC2)cc1	0	-5.0	-10	-3	4.3	1.6	-4	2.7
CCc1ccc(C(=O)NC(=S)Nc2ccc3c(c2)OCCO3)cc1	-4	1.3	-2	4	?	-1.2	10	4.5
Cc1cccc2nc(CSc3ccccc3C(=O)O)cn12	1	0.0	-15	-11	6.4	-0.8	-3	3.9
COc1ccc(NC(=O)c2cccnc2)cc1OCC(C)C	0	1.6	-13	-2	1.8	-0.8	3	nt
CCCS(=O)(=O)N1CCc2cc(OC)c(OC)cc2C1	-2	0.9	-7	7	-1.3	1.0	2	-1.7
CN(C)CCCNc1oc(-c2ccccc2)nc1C#N	-2	-0.2	-7	1	2.4	0.1	5	-31
Cc1c(OC(C)C(=O)NCCN2CCOCC2)ccc2c3c(c(=O)oc12)CCCC3 (stereo unspecified)	nt	1.0	15	-1	1.8	-0.5	-9	-44
Cc1cc2ncc(C(=O)Nc3ccsc3C(=O)O)c(C)n2n1	-3	-0.4	-19	-4	-0.2	-2.3	1	4.6
COc1ccccc1C(=O)Nc1ccc(S(=O)(=O)Nc2cnc3ccccc3n2)cc1	-4	-1.1	6	1	1.6	-0.2	11	1.5
CCOc1ccc(C(C(=O)NCC2CCCO2)N(C(=O)c2snc(C(N)=O)c2N)c2ccc3c(c2)OCCO3)cc1 (stereo unspecified)	-7	2.4	0	45	-5.5	0.8	-21	-17
O=C(Cc1ccccc1)N/N=C/c1ccc(S(=O)(=O)O)o1	nt	-0.3	-2	-1	-3.9	1.1	9	nt
CC(C)(C)c1cc(C(=O)N2CCc3ccccc32)ccn1	-7	-4.3	-7	-5	0.0	0.9	-16	0.7
CCOC(=O)c1ccc2ncc(C(=O)OCC)c(NCc3ccco3)c2c1	7	-3.8	29	1	-0.6	-0.4	6	-31
Next part:
SMILES	Beta apoptosis	LANA-H2B inh	T cruzi inh	Calb FLC	RanGTP-Impb inh	A1 inh	B2AR ag	UCH37 DUB inh
Cc1ccc(NC(=S)N2CCCCCC2)c(C)c1	-3	-6.6	-17	-5	6.4	-0.5	0	0.6
CC(NC(=S)NCCc1ccccc1)C(c1cccs1)N1CCN(C)CC1 (stereo unspecified)	-1	-0.1	-1	-5	-1.1	nt	-1	1.7
C[C@H]1C[C@@H]2[C@H]([C@@H](O)C[C@@]3(C)[C@H]2CC[C@]3(O)C(=O)CO)[C@@]2(C)C=CC(=O)C=C12	-5	0.3&-29	15	nt	-0.1	1.1	4	3.0
O=C(NCc1ccccc1)c1ccc(Cn2cc(C(F)(F)F)ccc2=O)cc1	-1	2.9	1	22	-3.7	1.4	-5	-0.2
Cn1c(=O)c2c(nc(N3CCc4ccccc4C3)n2Cc2ccccc2F)n(C)c1=O	nt	2.9	18	3	1.3	0.3	3	4.3
COc1cc2c3c(c1OC)C1(C=CC(=O)C=C1)CC3N(C(=O)CCC(=O)O)CC2 (stereo unspecified)	-6	3.9	-6	1	6.0	0.0	11	-3.6
O=C(COc1ccccc1)N1CCN=C1SCc1ccc(F)cc1	2	0.2	14	-6	5.7	-0.2	-5	3.4
Nc1ccc(N2CCCC2)c(S(=O)(=O)Nc2cccc(C(F)(F)F)c2)c1	-4	-0.1	nt	nt	nt	-1.4	-7	-2.8
COC(=O)C1=C(COc2ccccc2)NC(=O)NC1c1ccc(Br)cc1 (stereo unspecified)	-7	-1.1	23	21	1.1	-1.6	-25	0.2
COc1cc(NC(=O)CN2c3ccccc3CC2C)cc(OC)c1OC (stereo unspecified)	-3	-2.4	-11	1	0.0	-0.2	9	2.6
